# Mtb H37Rv = M. tuberculosis H37Rv growth inhibitors, H37Rv strain (AID 1626); M. tuberculosis H37Rv growth inhibition; higher % means a stronger effect; inhibition, % at 10 µM; hits with a dose series show IC50 in µM; 220,000 compounds, 0.95% hits;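 active = confirmed in a dose series; inconclusive = inhibition above 80% but not taken into the dose series; inactive = below 80% or under 30% at every dose of the series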;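 note: bacteria incubated seven days before Alamar blue readout; 0% = bacteria only wells and 100% = bacteria with antibiotic wells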
# RecA splice inh = blocks M. tuberculosis RecA intein splicing | P9WHJ3 | cell-free RecA intein splicing, fluorescence | inhibition, %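 (about 9 µM by stock and volumes)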 | 290,000 compounds, 0.75% hits | AID 2221; in the data active = inhibition above about 30%; inconclusive = no clear call, values can overlap the other calls;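 note: 0% = vehicle wells and 100% = reference inhibitor control wells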
# Target sequence (P9WHJ3 whole entry, looked up, canonical isoform): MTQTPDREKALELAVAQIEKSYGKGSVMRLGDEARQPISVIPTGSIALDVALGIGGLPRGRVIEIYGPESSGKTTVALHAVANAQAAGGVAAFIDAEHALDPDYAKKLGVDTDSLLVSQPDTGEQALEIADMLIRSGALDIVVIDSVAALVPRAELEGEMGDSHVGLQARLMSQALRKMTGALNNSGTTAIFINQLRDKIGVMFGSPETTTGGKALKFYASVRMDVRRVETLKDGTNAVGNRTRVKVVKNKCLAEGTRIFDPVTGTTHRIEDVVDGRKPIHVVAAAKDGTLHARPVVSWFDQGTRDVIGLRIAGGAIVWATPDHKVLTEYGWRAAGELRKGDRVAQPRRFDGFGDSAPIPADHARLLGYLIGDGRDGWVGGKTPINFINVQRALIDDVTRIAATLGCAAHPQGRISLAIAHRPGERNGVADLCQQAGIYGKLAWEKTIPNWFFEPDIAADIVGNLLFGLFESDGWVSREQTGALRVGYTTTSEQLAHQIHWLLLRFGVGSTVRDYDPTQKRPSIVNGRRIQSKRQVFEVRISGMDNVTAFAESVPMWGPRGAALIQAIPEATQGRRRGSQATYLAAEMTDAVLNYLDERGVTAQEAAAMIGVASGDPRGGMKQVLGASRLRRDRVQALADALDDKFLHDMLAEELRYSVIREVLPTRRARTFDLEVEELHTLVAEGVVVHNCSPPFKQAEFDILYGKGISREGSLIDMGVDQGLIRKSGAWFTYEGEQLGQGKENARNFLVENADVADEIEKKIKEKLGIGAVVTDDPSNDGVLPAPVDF
# YopH inh = inhibitors of Yersinia enterocolitica YopH tyrosine phosphatase; fluorescence Ex485/Em525; 140,000 compounds, 0.16% hits; inhibition, %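 (about 10 µM by stock and volumes)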;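 active = inhibition of 50% or more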;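 note: controls were vehicle for no effect and minimum signal wells for full effect; inactives centre near -20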
# Arbovirus anti = antivirals against arbovirus infection; arbovirus infection cell-based antiviral screen; inhibition, % at 10 µM; 200,000 compounds, 0.37% hits; AID 1251;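 active = inhibition from about 30%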;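 note: bluetongue infection of BSR cells; cell survival read as ATP light after 72 h; 0% = infected wells without compound and 100% = uninfected wells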
# Mtb bLac sens = beta-lactam sensitization of Mtb H37Rv | M. tuberculosis H37Rv growth with meropenem, percent inhibition; hits of this screen are not shown here | inhibition, % at 25 µM | 330,000 compounds, 0.27% hits | AID 434955;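 active = about 74% or more and at least 40 points above the plate without the antibiotic, then above 30% in a dose series; inconclusive = first-round hits that could not be retested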;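 note: growth measured after seven days incubation then overnight dye step; 0% = bacteria only wells and 100% = bacteria with antibiotic; twin plates without the antibiotic show which effects depend on it; some results filed as inactive read as strong as hits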
# Arbovirus anti repeat = also measured in Arbovirus anti; calls as there; inhibition, %; measured here: 10K subset replicate screen; many hits read low in the repeat;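 first of two repeat runs on a subset; 0% = infected and 100% = uninfected wells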
# The depositor's hits bear a star; ? = inconclusive; . = not tested or not shown. These rows are one share of the data; count on the stated rates, not on these rows.
SMILES,Mtb H37Rv,RecA splice inh,YopH inh,Arbovirus anti,Mtb bLac sens,others
COc1cccc(NC(=O)C(C)SCc2ccccc2)c1 (stereo not given),2%,5.3,.,12,37,
Cc1cc(OC(C)C(=O)NNC(=O)Nc2ccc(F)cc2F)cc(C)c1Cl (stereo not given),.,-2.9,.,.,-2,
CC1(c2ccc([N+](=O)[O-])cc2)NC(=O)N(CC(=O)Nc2cccnc2Cl)C1=O (stereo not given),.,3.3,.,.,-7,
CC(CCc1ccccc1)NC(=O)[C@@H]1Cc2ccccc2CN1 (stereo not given in full),.,-1.7,.,.,4,
COc1ccc(OC)c(/C=N/NC(=O)C(=O)N2CCCC2)c1,-6%,-5.9,.,-6,16,
Cc1ccc(Cl)cc1NC(=O)CCN1C(=O)C2C3CCC(C3)C2C1=O (stereo not given),-7%,-0.4,.,-5,4,
CC(=O)Nc1ccccc1N(C)S(=O)(=O)c1ccc(C)cc1,-1%,1.4,-7,-22,0,
COC(=O)C1CN(C(=O)COc2ccc(Cl)cc2Cl)c2ccccc2O1 (stereo not given),.,5.9,.,.,46,
O=C(COC(=O)/C=C/c1ccccc1[N+](=O)[O-])NC1CCS(=O)(=O)C1 (stereo not given),-3%,1.1,.,0,-10,
CN(C(=O)C1CCN(S(=O)(=O)c2cccc3nonc23)CC1)C1CCCCC1,.,5.5,.,.,?,
OC1(C#Cc2c(-c3ccsc3)oc3ccc(N4CCOCC4)cc23)CCCCC1,15µM*,6.2,.,.,-5,
O=C(O)c1cc(-c2ccccc2)c(N2CCOCC2)s1,-10%,-3.3,-37,-4,1,
CSc1cccc(NC(=O)CN2C(=O)COc3ccc(S(=O)(=O)N4CCOCC4)cc32)c1,.,-0.5,.,.,2,
CC(=O)Nc1c2c(nn1-c1ccccc1)CSC2,.,-3.2,.,.,1,
O=C(CNc1ccc(Br)cc1)NNC1=NCCC1,-8%,-1.1,-27,4,-4,
Cc1nc(C(F)(F)F)ccc1C(=O)Nc1ccc(C(F)(F)F)cn1,-7%,-0.3,.,.,12,
COc1cccc(C(=O)C2CCCN(Cc3cccn3-c3cccnc3)C2)c1 (stereo not given),0%,-0.6,.,4,2,
Cc1cccc(/N=C/c2c(O)n(Cc3ccc4c(c3)OCO4)c(=O)c3ccccc23)n1,5%,-2.4,.,-8,9,
Cc1cccc(C)c1N1C(=O)[C@@H]2C(c3ccccc3Cl)=NO[C@@H]2C1=O,-8%,-2.3,.,.,6,
Cc1ccc(SCCCn2cnc3ccccc3c2=O)cc1,3%,-4.3,-16,3,12,
O=S(=O)(c1ccccc1S(=O)(=O)N1CCCCC1)N1CCCCC1,-8%,-11,-40,4,-3,
COCCNC(=O)c1onc(CSc2cccc(OC)c2)c1C(=O)O,-3%,-2.6,-15,-1,-18,
Cc1ccc(Cl)c(OCC(=O)Nc2ccccc2C(=O)NC2CC2)c1,.,0.9,.,.,-7,
O=C(N/N=C/c1ccncc1)/C(=C/c1ccccc1)NC(=O)c1ccccc1,-4%,-1.4,-44,0,11,
CCCn1c2c(c(O)c(C(=O)Nc3ccccc3)c1=O)CCCC2,.,4.6,-34,7,7,
O=C(COC(=O)CC(c1ccccc1)c1ccccc1)NCc1ccccc1,-7%,2.0,-22,9,-11,
c1ccc2[nH]c(CCNC3CCCCC3)nc2c1,-14%,1.2,-41,12,1,
CCN(C(=O)CSc1nc2ccccc2c(=O)n1C(C)COC)C1CCS(=O)(=O)C1 (stereo not given),4%,-3.8,.,-8,0,
O=C(NC1(C(F)(F)F)NC(=O)N(c2ccc(F)cc2)C1=O)c1cccs1 (stereo not given),-4%,-0.3,-15,3,-4,
COc1ccc(-c2coc3cc4oc(=O)cc(C)c4cc23)cc1F,8%,0.5,-5,-15,0,
Cc1cc(Cl)ccc1NC(=O)NC1CCN(S(=O)(=O)c2ccc(F)cc2)CC1,5%,-5.5,-8,3,-3,
CC(C)CN1CCN(Cc2ccc3ncccc3c2)CC1CCO (stereo not given),6%,0.3,.,-5,-8,
C=CCc1cc(Cl)ccc1OCCCNCCO,1%,1.9,.,-39,-3,
O=C(Nc1ccnc(-c2ccncc2)n1)C1CC1,-7%,-0.5,.,7,-1,
O=C(NCc1cccnc1)c1ccc(NS(=O)(=O)c2ccccc2)cc1,.,-2.4,.,.,-10,
Cc1ccc2[nH]c(C)c(CC(=O)NCc3ccccc3)c2c1,.,3.8,.,.,-1,
O=C(CCl)N=c1sccn1Cc1ccc(Cl)cc1Cl,78%,44*,.,-30,100,
COc1ccc2[nH]cc(S(=O)(=O)c3ccc(C(C)C)cc3)c(=O)c2c1,0%,-3.8,.,-4,-3,
COc1cccc(CNc2cc(CSc3ccc(Cl)cc3)nc(C)n2)c1,6%,11,-21,4,8,
CCC(=O)Nc1ccc(C(=O)CSc2nnc(-c3ccc(NS(C)(=O)=O)cc3)n2C)cc1OC,-1%,-0.4,-18,-10,-5,
Cc1ccc(Cc2cnc(NC(=O)c3ccco3)s2)cc1,0%,1.5,-14,-17,2,
Cc1cnc(C)c(N2CCC(C(=O)NC(C)c3cccs3)CC2)n1 (stereo not given),3%,0.0,-13,-6,-4,
COc1ccc(/C=C2\C(=O)NC(=S)N2C(=O)c2ccc(C)cc2)cc1,77%,9.4,-25,5,81,
CS(=O)(=O)Nc1ccc(C(=O)NCCSCc2c(F)cccc2Cl)cc1,2%,5.4,.,3,4,
COCCNC(=O)CSCc1c(F)cccc1Cl,-3%,-2.9,-26,-1,2,
COCCn1c(=NC(=O)CCS(=O)(=O)c2ccccc2)sc2c(OC)ccc(OC)c21,.,-0.8,.,.,-8,
FC(F)(F)C12CC(c3ccccc3)=NCCN1CCN2 (stereo not given),-1%,-4.1,-21,-3,-8,Arbovirus anti repeat=0
Cc1nn(Cc2ccccc2)c(C)c1NC(=O)c1cccs1,6%,-3.4,-17,-1,2,
N=C(c1cccc([N+](=O)[O-])c1)N1CCCCC1,-2%,0.2,.,6,-2,
COc1ccc(NC(=O)CN(C)CC(=O)Nc2sc3c(c2C(N)=O)CCC3)cc1,.,1.4,.,.,18,

# Going on with the list:
SMILES,Mtb H37Rv,RecA splice inh,YopH inh,Arbovirus anti,Mtb bLac sens,others
COC(=O)C1C(O)=C(C=Nc2cccc3ccccc23)C(=O)CC1(C)C (stereo not given),55%,-1.5,.,.,91,
Cc1nn(-c2ccccc2)c(=S)n1-c1ccccc1,6%,-1.5,-36,1,3,
COc1ccc(C(=O)NCC(c2ccco2)N2CCOCC2)cc1OC (stereo not given),.,-2.4,.,.,4,
COc1cccc(N2CCN(C(=O)C3CCCN(c4ncnc5c4nc4n5CCCCC4)C3)CC2)c1 (stereo not given),.,3.3,.,.,52,
Cc1cc(NCc2ccccc2)nc(N2CCOCC2)n1,-8%,-1.8,22,1,1,
COc1ccc2[nH]c3c(c2c1)CCN1C(=O)N([C@@H](C)C(=O)NCc2ccccc2)C(=O)[C@]31C,.,-7.8,.,.,-9,
Fc1ccc(F)c(CN2CCN(c3ncccn3)CC2)c1,-8%,-1.5,22,-8,?,
O=C(C1CC1)N(CCN(Cc1ccccc1)C(=O)C1CC1)Cc1ccccc1,.,5.4,-43,-3,34,
CC(=O)c1ccc(N2CCN(CC3CCCCC3)CC2)cc1,.,0.0,.,.,-1,
CC(=O)c1ccc(Oc2ncnc3sccc23)c(CN2CCOCC2)c1,-6%,-3.0,-38,4,-1,
CCn1c(C)c(C2=CCN(S(=O)(=O)c3ccc(C)cc3)CC2)c2ccccc21,1%,-2.6,-14,16,3,
CCO[C@@H]1OC(C(=O)N2CCOCC2)=C[C@H](C2CCCCC2)[C@H]1CCCO,-1%,-0.6,.,6,-7,
COCCNS(=O)(=O)c1ccc2c(c1)oc(=O)c1cc(S(=O)(=O)NCCOC)ccc12,.,1.7,-29,-5,-6,
Cc1ccccc1Nc1nc(CSc2nnnn2-c2ccccc2)cs1,6%,6.0,-17,2,-8,
CCc1cc2c(s1)NC(=O)CN=C2c1cccs1,-3%,-2.8,-24,-13,-4,
Nc1ccc(NC(=O)Nc2ccc(N)cc2)cc1,-12%,-1.1,.,.,5,
Fc1ccccc1NC(=S)N1CCN(c2ccccn2)CC1,1%,-1.9,-26,-2,3,
CCC1CCCCN1C(=O)CSc1nnc(-c2ccc(OC)cc2)o1 (stereo not given),-6%,-0.2,-33,-17,?,Arbovirus anti repeat=-4
Cc1cc(OC(C)C(=O)N2CCN(c3ccccc3)CC2)c2c(C)c(C)c(=O)oc2c1 (stereo not given),.,0.4,.,.,-6,
CCOC(=O)C1=C(CSc2nc3ccccc3s2)NC(=O)NC1c1ccc(OC)cc1 (stereo not given),2%,.,-25,-2,4,
O=C(OC1CCN(c2ncc(C(F)(F)F)cc2Cl)CC1)c1cccc(C(F)(F)F)c1,-2%,7.8,-13,-4,10,
CCn1cc(C(=O)NCCC(=O)NC(C)C)c(=O)c2cc3c(cc21)OCO3,.,0.9,.,.,6,
Cc1ccc(SCCN2CCN(Cc3ccccc3)CC2)cc1,.,-4.0,.,.,-16,
Cc1ccc(C)c(S(=O)(=O)N2CCN(CC(=O)Nc3ccc4c(c3)CCC4)CC2)c1,5%,8.3,-8,-25,5,
Cc1ccc(C(=O)N/C(=C/c2ccco2)C(=O)NC2CCS(=O)(=O)C2)cc1 (stereo not given),6%,.,.,-2,0,
COc1ccccc1CN1CCC(n2nccc2NC(=O)CCCc2ccccc2)CC1,.,1.6,.,.,-11,
COc1cccc(/C=C(/C(=O)OCC(=O)NC2CCCCCCC2)c2ccccc2)c1,4%,.,-26,14,14,

# Filtered by structure: those above with a Cl atom
SMILES,Mtb H37Rv,RecA splice inh,YopH inh,Arbovirus anti,Mtb bLac sens,others
Cc1cc(OC(C)C(=O)NNC(=O)Nc2ccc(F)cc2F)cc(C)c1Cl (stereo not given),.,-2.9,.,.,-2,
CC1(c2ccc([N+](=O)[O-])cc2)NC(=O)N(CC(=O)Nc2cccnc2Cl)C1=O (stereo not given),.,3.3,.,.,-7,
Cc1ccc(Cl)cc1NC(=O)CCN1C(=O)C2C3CCC(C3)C2C1=O (stereo not given),-7%,-0.4,.,-5,4,
COC(=O)C1CN(C(=O)COc2ccc(Cl)cc2Cl)c2ccccc2O1 (stereo not given),.,5.9,.,.,46,
Cc1cccc(C)c1N1C(=O)[C@@H]2C(c3ccccc3Cl)=NO[C@@H]2C1=O,-8%,-2.3,.,.,6,
Cc1ccc(Cl)c(OCC(=O)Nc2ccccc2C(=O)NC2CC2)c1,.,0.9,.,.,-7,
Cc1cc(Cl)ccc1NC(=O)NC1CCN(S(=O)(=O)c2ccc(F)cc2)CC1,5%,-5.5,-8,3,-3,
C=CCc1cc(Cl)ccc1OCCCNCCO,1%,1.9,.,-39,-3,
O=C(CCl)N=c1sccn1Cc1ccc(Cl)cc1Cl,78%,44*,.,-30,100,
COc1cccc(CNc2cc(CSc3ccc(Cl)cc3)nc(C)n2)c1,6%,11,-21,4,8,
CS(=O)(=O)Nc1ccc(C(=O)NCCSCc2c(F)cccc2Cl)cc1,2%,5.4,.,3,4,
COCCNC(=O)CSCc1c(F)cccc1Cl,-3%,-2.9,-26,-1,2,
O=C(OC1CCN(c2ncc(C(F)(F)F)cc2Cl)CC1)c1cccc(C(F)(F)F)c1,-2%,7.8,-13,-4,10,

# Source: PubChem BioAssay (several laboratories)
